D2 PAM = potentiates the human D2 dopamine receptor allosterically; potentiation, % (no concentration beside the values); P14416; DiscoveRx D2 beta-arrestin cells, luminescence, 90 min; 100% = 57 uM dopamine signal; 360,000 compounds, 0.23% hits; active = potentiation of 50% or more; inconclusive = 30% to 50%; inactive = 30% or less;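 note: compound concentration not given in the record; tested on top of an EC20 dose of dopamine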
Target sequence (P14416 whole entry, looked up): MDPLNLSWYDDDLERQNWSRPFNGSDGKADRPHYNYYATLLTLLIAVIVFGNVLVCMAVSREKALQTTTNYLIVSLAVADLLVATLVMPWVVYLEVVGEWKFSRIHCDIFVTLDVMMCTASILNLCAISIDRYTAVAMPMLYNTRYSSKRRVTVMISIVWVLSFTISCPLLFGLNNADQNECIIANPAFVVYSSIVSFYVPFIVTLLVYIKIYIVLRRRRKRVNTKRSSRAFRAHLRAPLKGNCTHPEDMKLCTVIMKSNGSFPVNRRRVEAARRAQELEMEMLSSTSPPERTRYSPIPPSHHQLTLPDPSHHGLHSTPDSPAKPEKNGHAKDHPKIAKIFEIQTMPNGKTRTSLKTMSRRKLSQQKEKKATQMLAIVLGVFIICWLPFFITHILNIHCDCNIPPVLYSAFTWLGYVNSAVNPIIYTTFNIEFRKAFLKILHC
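D2 cells co-treated with compound plus 50 nM dopamine (EC20) for 90 min at 37 deg C to detect potentiation. Beta-arrestin recruitment was read as enzyme-fragment luminescence after 1 h at ambient temperature. Full response was set by 57 uM dopamine.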
ClpP mod = qHTS Assay for Activators of ClpP; ATP-dependent Clp protease proteolytic subunit (Bacillus subtilis (strain 168)), P80244; purified B. subtilis ClpP, FRET peptide cleavage, 20 min; Potency, µM (top dose mostly 57.5 µM), for inactives: top-dose activity change, negative = active; 340,000 compounds, 1.9% hits; active = well fitted falling curve with a large enough effect; inconclusive = small, poorly fitted or top-dose-only effect; inactive = no such curve, though single readings can be large or run the other way; note: potency is the fitted concentration of half-maximal effect; the source files actives as falling curves though it sought activators and does not explain the sign; nearly all actives have a fitted effect of over 65% in size; many hits overshoot -100%
Target sequence (P80244 whole entry, looked up): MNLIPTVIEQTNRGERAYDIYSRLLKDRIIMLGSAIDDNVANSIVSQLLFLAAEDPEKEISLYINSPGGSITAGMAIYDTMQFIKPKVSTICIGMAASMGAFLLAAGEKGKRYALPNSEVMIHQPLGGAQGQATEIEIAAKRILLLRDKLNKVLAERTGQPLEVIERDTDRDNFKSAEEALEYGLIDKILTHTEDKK
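FRET quenching reversal measured ClpP activation: 10 microg/mL B. subtilis ClpP at pH 8 with the FRET-FV decapeptide, read at 430 nm after 320 nm excitation. The 20-min minus 0-min signal was scaled between DMSO/no-enzyme wells and ADEP (5.8 microM final).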
TRPV1 PAM = potentiators of human vanilloid receptor 1 (TRPV1); Q8NER1; TRPV1-expressing cells, Fluo-8 calcium influx, capsaicin EC20 potentiation; host cell line not named in the record; control for the full effect not named in the record; potentiation, % at 8.33 µM; 320,000 compounds, 0.02% hits; active means potentiation above 80%; inconclusive means 30% to 80%; inactive means below 30%; note: 0% is about no effect
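Cells expressing TRPV1 were dye-loaded with Fluo-8 and read kinetically: 10 s baseline, 3 min after compound (agonist portion), then 2 min after EC20 capsaicin (allosteric enhancer portion). Calcium-bound dye fluorescence at 480/520 nm.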
gsp agonist = activates gsp, the McCune-Albright syndrome mutation; gsp mutant cells, cAMP HTRF, 30 min; control for the full effect not named in the record; 340,000 compounds, 0.13% hits; Potency, µM (series often up to 76.9 µM), without a hit: at the top dose activation (cAMP increase), actives largely listed as activators; active = well fitted activation curve with a large enough effect; inconclusive = small, poorly fitted or top-dose-only effect, or another doubt; inactive = no such curve, though single readings can be large or run the other way; cell line not stated here;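 note: phosphodiesterase inhibitor Ro 20-1724 added with compounds to block cAMP breakdown; potency is the fitted concentration of half-maximal effect; nearly all actives have a fitted effect of over 60% in size; about a fifth of the inactives were tested at one dose only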
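Cells stably selected in G418 were plated at 2000/well, grown 16-24 hr, then given compounds in DMSO with the PDE inhibitor […] (300 uM solution added) for 30 min at 37C; cAMP was read by HTRF.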
gsp antag = antagonizes gsp, the McCune-Albright syndrome mutation. gsp-mutant cells, cAMP HTRF, 30 min; control for the full effect not named in the record. Potency, µM (highest dose often 76.9 µM), for the others: at the top dose activity change, negative = inhibition, most hits filed as inhibitors. 340,000 compounds, 0.4% hits; active = falling curve of any shape with a large fitted effect; inconclusive = falling curve, mostly with a smaller effect; inactive = flat or rising curve; cell line not stated here;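 note: intracellular cAMP measured with PDE inhibitor Ro 20-1724 present during compound exposure; potency is the fitted concentration of half-maximal effect; % is set by controls: 0 for no effect and ±100 for the full control effect; nearly all actives have a fitted effect of over 65% in size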
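HTRF cAMP read-out (cAMP-d2 plus anti-cAMP antibody-K in lysis buffer, 30 min RT). Before lysis, cells are exposed to compounds with […] for 30 min at 37C in DPBS containing Ca/Mg, BSA and Tween 20.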
Sfp inh = Sfp phosphopantetheinyl transferase inhibition; Q9F4F7; Biochemical Sfp PPTase activity, qHTS; Potency, µM, for the others: max response, negative = inhibition, actives largely listed as inhibitors; 310,000 compounds, 3.5% hits; AID 1490; active = well fitted inhibition curve with a large enough effect; inconclusive = small, poorly fitted or top-dose-only effect, or another doubt; inactive = no such curve, though single readings can be large or run the other way;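 note: the enzyme is Sfp with the accession as filed and its product quenches rhodamine fluorescence; potency is the fitted concentration of half-maximal effect; 0% = enzyme reaction without inhibitor and -100% = no enzyme wells; top concentration of the series not given in the record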
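Sfp 15 nM + cpd, 15 min RT; start w/ rhodamine-CoA 5 uM, BHQ-2-YbbR 12.5 uM (final); 50 mM Hepes pH 7.6, 10 mM MgCl2, 0.01% NP-40, 0.01% BSA; read 525/598 nm at 0 and 30 min.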
Menin MLL FP FL = menin-MLL binding inhibition, fluorescein peptide. Fluorescence polarization, fluorescein-MLL peptide displacement from menin. FP activity change, % at 61.4 µM. 290,000 tested, under 10 active; inconclusive = falling polarisation curve, or a change in total fluorescence; inactive = total fluorescence flat and polarisation flat or rising; no compound was filed as active; the % refers to the polarisation; negative = inhibition;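 note: % of control where 0% means no effect; inhibitors lower the polarisation; unlabelled MLL peptide was the positive control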
An asterisk follows results filed as active; ? = inconclusive; . = not tested or not shown; [ ] = another dose, or the depositor's remark.

smiles,D2 PAM,ClpP mod,TRPV1 PAM,gsp agonist,gsp antag,Sfp inh,Menin MLL FP FL
CCN1C[C@@H]2[C@@H]3C(=O)N(Cc4ccccc4)C(=O)[C@@H]3[C@](CC)(C1=O)N2C(=O)c1ccc(C(F)(F)F)cc1,2.2,-1.4%,.,.,5.5%,.,.
CCCN1CCN(C(=S)Nc2ccc([N+](=O)[O-])cc2)CC1,-15.9,-0.5%,4.1,46.7%,-3.2%,?,3.1
NS(=O)(=O)c1ccc(NC(=O)COC(=O)COc2ccccc2)cc1,-5.1,-0.8%,-2.4,28.4%,-2.0%,-1.5%,2.4
O=C(C/C=N/OCc1ccc(F)cc1Cl)c1cnc(-c2ccccc2)s1,-0.6,-12.2%,0.9,10.3%,0.1%,21.3%,2.0
COc1ccc(CN2C(=NC(=O)C3CCCCC3)SC3CS(=O)(=O)CC32)cc1 (stereo not given),-9.2,0.4%,-22.9,?,2.7%,10.0%,.
COc1cc(/C=C2/SC(=O)NC2=O)ccc1OC(=O)c1ccco1,-6.8,1.3%,1.3,-3.8%,-16.1%,5.8%,6.0
CCN1C(=NCCCOC(C)C)N[C@@H](CCc2ccccc2)[C@H](C(=O)NCCCOC(C)C)[C@H]1C,-7.8,-12.5%,3.2,16.9%,-1.1%,-0.2%,-10.9
COc1cc(/C=N/NC(=O)c2ccncc2)ccc1OCC(=O)Nc1ccc(C)c(C)c1,12.9,.,12.0,-1.7%[15.4 µM],-5.8%,5.0%,.
Cc1cc(C)c(NC(=O)c2sc3nc4c(cc3c2N)C(=O)CC(C)(C)C4)c(C)c1,-6.7,1.9%,-16.1,-39.2%[inhibitor],-12.0%,-13.6%,-0.6
O=C(Nn1c(=O)[nH]c2ccsc2c1=O)c1ccccc1,-0.1,-0.3%,-25.1,27.7%,7.6%,0.8%,5.8
COc1ccc(C(=O)NCCCCCCNC(=O)c2ccc(OC)cc2)cc1,-15.0,0.7%,4.3,-11.7%[15.4 µM],0.4%,-15.9%,-1.5
C=CCNc1ncnc2c1[nH]c1ccc(Cl)cc12,3.3,28.2µM*,-9.1,12.6%,-19.9%,-28.1%,-4.1

smiles,D2 PAM,ClpP mod,TRPV1 PAM,gsp agonist,gsp antag,Sfp inh,Menin MLL FP FL
Cc1ccc(CN2CCN(C(=O)CCN3C(=O)c4ccccc4C3=O)CC2)cc1,-9.5,-0.9%,-13.7,-12.7%,-11.6%,13.5%,4.8
COc1cc(C(=O)NC2CC(C)CC(C)(C)C2)cc(OC)c1OC (stereo not given),-2.9,0.0%,.,-24.9%,.,.,.
Fc1ccc(COc2cccc3cccnc23)cc1,-6.9,.,-0.7,14.4%[15.4 µM],5.5%,21.1%,-0.5
Cc1ccc(-c2nn(-c3ccccc3)cc2C(=O)N2CCN(C3CCS(=O)(=O)C3)CC2)cc1 (stereo not given),-2.0,0.1%,14.8,-5.2%,2.9%,.,.
NNC(=O)c1cc2c(N3CCC(Cc4ccccc4)CC3)ncnc2s1,-5.8,.,-22.2,5.9%[15.4 µM],?,8.8%,3.0
COCCN1C(=O)C(CC(=O)Nc2ccc(C(=O)O)cc2)SC1=Nc1ccccc1 (stereo not given),-2.0,-2.8%,6.9,-2.4%,8.7%,-7.9%,0.1
CC(C)=CCN1CCN(Cc2cnc(N3CCCC3)s2)CC1CCO (stereo not given),-5.7,.,-0.1,-6.0%[15.4 µM],1.5%,8.7%,2.0
Cc1ccc(C(=O)N[C@H](C(=O)N2CCN(c3ncccn3)CC2)C(C)C)cc1,-13.3,-16.0%,.,-12.3%,.,.,.
COC(C(=O)C(O)C(C)O)C1Cc2cc3cc(OC4CC(OC5CC(O)C(O)C(C)O5)C(O)C(C)O4)c(C)c(O)c3c(O)c2C(=O)C1OC1CC(OC2CC(OC3CC(C)(O)C(O)C(C)O3)C(O)C(C)O2)C(O)C(C)O1 (stereo not given),.,-0.7%,.,.,.,0.6%,?
COc1ccc(-n2c(O)c(/C=N/Nc3nc(C)cc(C)n3)c3ccccc3c2=O)cc1OC,-43.4,-0.4%,2.3,8.6%[15.4 µM],-4.0%,8.7%,3.4
CCOC(=O)[C@H]1[C@H]2COc3ccc(Cl)cc3[C@@H]2N2C(=O)c3ccc(Cl)cc3NC(=O)[C@@]12C,-7.2,-6.1%,0.2,?,8.8%,.,.
C(=N\N1CCOCC1)/c1ccsc1,-13.4,-0.5%,-7.4,-38.3%[inhibitor],4.5%,19.5%,-2.6

smiles,D2 PAM,ClpP mod,TRPV1 PAM,gsp agonist,gsp antag,Sfp inh,Menin MLL FP FL
COc1ccc(C(=O)COC(=O)c2ccc3c(c2)OCO3)c(OC)c1,2.9,-13.9%,1.8,?,-4.8%,.,.
O=C(CN1C(=O)S/C(=C/c2ccccn2)C1=O)N1CCOCC1,-6.1,6.3%,-10.7,4.5%,-3.3%,12.5%,.
Cc1cc(Cl)ccc1OCC(=O)NN1C(=O)C2C3C=CC(C3)C2C1=O (stereo not given),-7.5,.,0.8,-21.8%,2.6%,9.5%,-0.5
CC(=O)Nc1ccc(NC(=O)COC(=O)Cc2c[nH]c3ccccc23)cc1,-4.6,2.5%,4.3,?,-10.1%,4.9%,5.0
CCc1ccc(-n2cc(-c3ccc([N+](=O)[O-])cc3)[nH]c2=S)cc1,-5.9,-2.0%,1.8,0.9%,-3.3%,-17.3%,2.7
COc1ccc(S(=O)(=O)Nc2cccc(Cl)c2)cc1OC,-5.1,-0.1%,10.4,4.9%,-5.9%,-2.7%,3.6
CCOc1ccc2[nH]c(=O)c(CN(CCO)C(=O)c3ccc(Br)cc3)cc2c1,-12.0,31.6µM*,21.1,-13.6%,-0.5%,-15.2%,-1.9
O=C(Nc1ccc(SC(F)F)cc1)c1ccc2c(=O)n3c(nc2c1)CCC3,0.7,2.6%,-4.6,-6.9%,?,.,.
CCCN(C)C[C@@H]1Oc2ncc(Br)cc2C(=O)N([C@@H](C)CO)C[C@H]1C,1.5,-0.5%,.,?,.,.,.
COC(=O)c1ccccc1S(=O)(=O)N1CCC(C(=O)OCc2cccc(OC)c2OC)CC1,6.9,-0.1%,1.4,-13.5%,-17.4%,.,.
CCCc1cc(-c2n[nH]c(=S)n2CC)cs1,-21.7,.,-4.3,11.1%[15.4 µM],3.2%,-0.2%,-1.8
Cc1cc(S(=O)(=O)c2ccc(Cl)cc2)nc(S(=O)(=O)c2ccc(Cl)cc2)c1C#N,-39.1,4.0%,.,7.1%,.,.,.

smiles,D2 PAM,ClpP mod,TRPV1 PAM,gsp agonist,gsp antag,Sfp inh,Menin MLL FP FL
O=C(N/N=C/c1ccccn1)c1cccc(NC(=O)c2ccc(Cl)cc2)c1,5.2,1.1%,-5.2,19.6%,-20.9%,10.1%,-2.2
O=C(/C=C/c1ccc(Br)cc1)N1CCN(Cc2ccccc2)CC1,-11.7,.,.,?,-4.5%,.,.
CN(C)c1nc2c(c(=O)n(C)c(=O)n2C)n1CC(=O)c1cccs1,-5.1,.,.,-14.4%[15.4 µM],?,.,.
CCn1c(=O)c([N+](=O)[O-])c(NCC(O)c2ccccc2)c2ccccc21 (stereo not given),-27.3,6.3%,11.7,-27.6%,-6.6%,7.7%,.
COc1ccccc1NC(=O)c1c(N=Cc2c(O)ccc3ccccc23)cnn1C,6.6,.,3.4,18.1%[15.4 µM],-3.5%,?,?
CCN(CC)CCn1c2c(c(SCC(=O)Nc3ccc(C)c(F)c3)nc1=O)CCC2,-4.3,-1.9%,-14.3,8.1%[15.4 µM],13.7%,.,.
Cc1nc(NC(C)C(=O)O)c2nc(C)oc2n1 (stereo not given),-3.5,-1.5%,5.7,9.9%,16.7%,-1.1%,0.3
CC1CCCCC1NC(=O)COCc1cc(-c2cccs2)on1 (stereo not given),-10.6,0.5%,-11.7,-31.4%,1.5%,3.8%,1.9
CCN(CC(=O)Nc1ccc2c(c1)OCCO2)C(=O)/C=C/c1ccc([N+](=O)[O-])cc1,14.5,-1.2%,-0.3,3.7%,3.8%,.,.
CN(C)c1ccc(C2Nc3ccccc3C(=O)N2NS(=O)(=O)c2ccccc2)cc1 (stereo not given),-0.7,.,4.0,9.3%[15.4 µM],-24.4%,16.1%,0.3
CCCCCCCNC(=O)C1(CC2CC(c3cccc(Br)c3)=NO2)CCN(C(=O)CCCCCBr)CC1 (stereo not given),-5.6,-3.3%,9.6,-7.9%,-8.0%,.,.
Cc1ccnn2cc3c(=O)n(C)c(=O)n(C)c3c12,.,.,-46.6,.,.,6.5%,3.0

smiles,D2 PAM,ClpP mod,TRPV1 PAM,gsp agonist,gsp antag,Sfp inh,Menin MLL FP FL
CNC(=O)CC1C(=O)N(c2ccc(F)cc2)C(=S)N1NC(=O)c1ccc(Br)cc1 (stereo not given),-13.1,-1.9%,-0.3,24.8%,-1.6%,5.7%,?
O=C(COC(=O)c1ccco1)Nc1cccc(Br)c1,-7.3,-1.4%,0.5,-12.0%,-7.2%,25.0%,5.0
Cc1nonc1OCCN1CCN(c2ccc([N+](=O)[O-])cc2)CC1,-11.6,.,.,10.6%,10.6%,1.5%,1.3
CCCN=C1N(CC)C[C@@H]2[C@@H]3C(=O)N(Cc4ccccc4)C(=O)[C@@H]3[C@](C)(C(=O)OC)N12,-0.7,0.6%,.,.,6.2%,.,.
COCCN1C=C(C(=O)OC)C(c2cc(Br)c(OC)c(OC)c2)C(C(=O)OC)=C1,-13.6,?,-8.6,9.1%,-12.8%,-5.7%,0.6
COC(=O)c1c(C)n(-c2ccc(C)cc2)c2ccc(O)cc12,-10.3,?,-10.2,?,-1.7%,5.9%,0.5
COc1cccc(-c2nnc3n2N=C(C(C)(C)C)CS3)c1,-0.8,-2.6%,21.6,-21.3%,-29.4%,21.9%,-0.9
CCN(CC)CCN(C(=O)c1ccc2c(c1)OCCO2)c1nc2cc(C)cc(C)c2s1,-45.6,-2.1%,11.1,3.6%,1.0%,?,-8.7
CC(Oc1ccc(Br)cc1)C(=O)N(C)CC(=O)Nc1ccc(N2CCOCC2)cc1 (stereo not given),15.6,-0.7%,-4.7,-24.6%,-3.5%,.,.

Screening results: PubChem BioAssay, National Center for Advancing Translational Sciences (NCATS)
